Screens deposited in PubChem by National Center for Advancing Translational Sciences (NCATS).
TRPV1 PAM: human TRPV1 potentiation; potentiation, % at 8.33 µM; TRPV1-expressing cells, Fluo-8 calcium influx, capsaicin EC20 potentiation; host cell line not named in the record; control for the full effect not named in the record; 0.02% of 320,000 active; Q8NER1; AID 540277; active means potentiation above 80%; inconclusive means 30% to 80%; inactive means below 30%; also: 0% is about no effect
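TRPV1-expressing cells were cultured overnight at 35.5C and loaded with Fluo-8 calcium dye for 40 to 90 min at room temperature. After a 10 s baseline, compound was added and calcium influx was read kinetically for 3 min (ex 480/em 520 nm).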
gsp antagonist: antagonizes gsp, the McCune-Albright syndrome mutation; gsp-mutant cells, cAMP HTRF, 30 min; control for the full effect not named in the record; Potency, µM (titrated, usually from 76.9 µM), inactives show at the highest dose activity change, negative = inhibition, most hits filed as inhibitors; 0.4% of 340,000 active; AID 624288; active = falling curve of any shape with a large fitted effect; inconclusive = falling curve, mostly with a smaller effect; inactive = flat or rising curve; cell line not stated here;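 also: intracellular cAMP measured with PDE inhibitor Ro 20-1724 present during compound exposure; potency is read from the fitted curve at half-maximal effect; % is scaled to controls: 0 for no effect and ±100 for the full control effect; nearly all actives have a fitted effect of over 65% in size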
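G418-selected cells were plated in DMEM/10% FBS for 16-24 h at 37C, then treated with compounds plus the PDE inhibitor […] (300 uM solution added) for 30 min at 37C. Intracellular cAMP was measured by HTRF after 30 min lysis at room temperature.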
Menin-MLL FL inh: displaces fluorescein MLL peptide from human menin; Fluorescence polarization, fluorescein-MLL peptide displacement from menin; FP activity change, % at 61.4 µM; 290,000 tested, under 10 active; inconclusive = falling polarisation curve, or a change in total fluorescence; inactive = total fluorescence flat and polarisation flat or rising; no compound was filed as active; the % refers to the polarisation; negative = inhibition;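 also: % of control where 0% means no effect; inhibitors lower the polarisation; unlabelled MLL peptide was the positive control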
TRPML1 blocker: human mucolipin-1 channel inhibition. Q9GZU1. TRPML1-inducible cells, Ca2+ dye fluorescence, FDSS; active compounds read low; inhibition of EC80 agonist-evoked calcium signal. activity change, negative = inhibition, % (test concentration not listed). 0.02% of 390,000 active; in the data active means activity change below about -50%; inconclusive means about -30% to -50%; inactive means above about -30%;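 also: stimulus is agonist 54-4 at its EC80 concentration; % is scaled to controls: 0 for no effect and ±100 for the full control effect; compound concentration not given in the record; the text of the record puts the active cut at -80%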
Target sequence (Q9GZU1 whole entry, looked up): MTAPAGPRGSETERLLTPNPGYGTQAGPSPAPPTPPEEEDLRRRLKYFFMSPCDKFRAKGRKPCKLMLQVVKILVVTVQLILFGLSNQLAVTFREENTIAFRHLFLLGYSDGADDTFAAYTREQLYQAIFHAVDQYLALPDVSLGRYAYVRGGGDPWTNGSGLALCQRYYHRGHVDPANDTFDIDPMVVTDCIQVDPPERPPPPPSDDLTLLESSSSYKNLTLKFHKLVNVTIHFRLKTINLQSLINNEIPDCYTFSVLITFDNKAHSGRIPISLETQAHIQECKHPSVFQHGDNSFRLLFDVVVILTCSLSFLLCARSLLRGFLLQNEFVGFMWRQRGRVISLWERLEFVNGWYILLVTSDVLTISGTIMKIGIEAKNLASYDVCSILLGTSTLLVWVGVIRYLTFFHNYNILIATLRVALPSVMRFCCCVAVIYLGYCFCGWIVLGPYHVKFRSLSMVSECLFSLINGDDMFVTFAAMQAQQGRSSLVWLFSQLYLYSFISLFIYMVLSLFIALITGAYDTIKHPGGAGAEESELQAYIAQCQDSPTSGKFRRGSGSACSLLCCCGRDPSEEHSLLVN
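TRPML1-DL cells, Tet-induced overnight (~16 h, 37 °C) at 1,500 cells/well, were loaded with Ca8 no-wash dye plus quencher for 45-90 min at room temperature. Compounds were pinned during FDSS kinetic reading; agonist 54-4 at EC80 (4 uM final) then added.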
ClpP mod: qHTS Assay for Activators of ClpP; ATP-dependent Clp protease proteolytic subunit (Bacillus subtilis (strain 168)), P80244; purified B. subtilis ClpP, FRET peptide cleavage, 20 min; Potency, µM (series often up to 57.5 µM), for the others: at the highest dose activity change, negative = active; 1.9% of 340,000 active; AID 651965, 2013; active = well fitted falling curve with a large enough effect; inconclusive = small, poorly fitted or top-dose-only effect; inactive = no such curve, though single readings can be large or run the other way; also: potency is read from the fitted curve at half-maximal effect; the source files actives as falling curves though it sought activators and does not explain the sign; nearly all actives have a fitted effect of over 65% in size; many hits overshoot -100%
Target sequence (P80244 whole entry, looked up): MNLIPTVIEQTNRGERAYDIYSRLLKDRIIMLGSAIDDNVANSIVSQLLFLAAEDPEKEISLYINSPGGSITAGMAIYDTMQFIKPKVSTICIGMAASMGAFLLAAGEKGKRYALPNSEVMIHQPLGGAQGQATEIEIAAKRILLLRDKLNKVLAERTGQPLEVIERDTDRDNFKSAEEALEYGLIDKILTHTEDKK
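Buffer: 100 mM Tris/HCl pH8, 100 mM KCl, 0.05% low protease BSA, 2.5% glycerol, 0.01% Tween-20. ClpP 10 microg/mL final; 20 min RT; delta FRET normalized to ADEP and DMSO controls.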
gsp agonist: activates gsp, the McCune-Albright syndrome mutation. Potency, µM (series often up to 76.9 µM), without a hit: top-dose activation (cAMP increase), actives largely listed as activators. 0.13% of 340,000 active. gsp mutant cells, cAMP HTRF, 30 min; control for the full effect not named in the record; active = well fitted activation curve with a large enough effect; inconclusive = small, poorly fitted or top-dose-only effect, or another doubt; inactive = no such curve, though single readings can be large or run the other way; cell line not stated here;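 also: phosphodiesterase inhibitor Ro 20-1724 added with compounds to block cAMP breakdown; potency is read from the fitted curve at half-maximal effect; nearly all actives have a fitted effect of over 60% in size; about a fifth of the inactives were tested at one dose only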
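Cells in DMEM/10% FBS with G418 were pretreated with compounds in DMSO plus […] (300 uM stock) for 30 min at 37C. cAMP was measured by HTRF (cAMP-d2 plus anti-cAMP antibody-K) after 30 min at room temperature.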
Sfp inh: blocks B. subtilis Sfp PPTase activity. Potency, µM, for inactives: max response, negative = inhibition, most hits filed as inhibitors. 3.5% of 310,000 active. Q9F4F7. Biochemical Sfp PPTase activity, qHTS; active = well fitted inhibition curve with a large enough effect; inconclusive = small, poorly fitted or top-dose-only effect, or another doubt; inactive = no such curve, though single readings can be large or run the other way;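 also: the enzyme is Sfp with the accession as filed and its product quenches rhodamine fluorescence; potency is read from the fitted curve at half-maximal effect; 0% = enzyme reaction without inhibitor and -100% = no enzyme wells; top concentration of the series not given in the record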
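After 15 min at room temperature with compound, 15 nM Sfp received 5 uM rhodamine-CoA plus 12.5 uM BHQ-2-ybbR (50 mM Hepes pH 7.6, 10 mM MgCl2). Rate came from the fluorescence difference over 30 min, ex 525/em 598 nm.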
* marks the source's active call; other numbers are inactive results; ? = inconclusive; . = no result given; & = joins results of further samples; [ ] = dose if it differs, or a comment.

Short keys – A = TRPV1 PAM; B = gsp antagonist; C = Menin-MLL FL inh; D = TRPML1 blocker; E = ClpP mod; F = gsp agonist; G = Sfp inh
O=Cc1cn(Cc2ccccc2F)c2ccccc12
  A: 16	B: -5%	C: 2.5	D: 26	E: .	F: ?	G: ?
Cc1nn(Cc2ccccc2Cl)c(C)c1C(=O)NC1CCCc2ccccc21 (stereo not given)
  A: -23	B: -1%	C: 6.8	D: -12	E: 1.4%	F: -11%	G: -3%
CCCNC(=O)N1[C@H]2CC[C@@H]1C(C(=O)OC)=C(c1cc3ccccc3s1)C2
  A: .	B: -9%	C: .	D: 22	E: -1.9%	F: -42%[inhibitor]	G: .
COc1cc(C=C2C(=O)NC(=O)NC2=O)ccc1OCc1ccc([N+](=O)[O-])cc1
  A: -5	B: -14%	C: -1.5	D: -8	E: .	F: -13%[15.4 µM]	G: 32µM*
CCOc1ccc(Br)c(C2(O)CC(C)N(C)CC2C)c1 (stereo not given)
  A: -12	B: 0%	C: 0.8	D: 11	E: -1.9%	F: 28%	G: -4%
COc1ccc(-c2cc(-c3ccccc3)[n+](C)c(-c3ccccc3)c2)cc1
  A: 3	B: 5%	C: -3.6	D: -16	E: .	F: -8%	G: 24%
NCCc1cc(O)c(O)cc1O
  A: .	B: -7%&-7%	C: ?	D: 3&61	E: -1.2%&-1.6%	F: .	G: 63µM*
COc1ccccc1CN1CCNCC1
  A: .	B: .	C: .	D: -1	E: -0.9%	F: -11%	G: .
CC(=O)N1CC(=O)Nc2ccc(C)cc2C1c1ccccc1 (stereo not given)
  A: 1	B: 3%	C: -0.1	D: -8	E: 0.8%	F: -38%[inhibitor]	G: 6%
Cc1cc(C)c(C(=O)CN2CCOCC2)c(C)c1
  A: 3	B: 11%	C: 2.6	D: -10	E: 32µM*	F: 0%	G: 3%
COc1cc2[nH]c(=O)n(-c3ccc(C)cc3)c(=O)c2cc1OC
  A: 4	B: 3%	C: 2.5	D: 31&-7	E: 4.0%&-2.6%	F: 5%[15.4 µM]	G: 12%
CCC(C)n1c(C)cc(C(N)=O)c1C (stereo not given)
  A: 7	B: -5%	C: -3.8	D: 44	E: 1.0%	F: -4%[15.4 µM]	G: 9%
O=c1c2ccccc2nc(-c2ccco2)n1-c1ccc(Br)cc1
  A: -1	B: -26%	C: 1.5	D: 4	E: 1.2%	F: -2%[15.4 µM]	G: 7%
CCn1c(=O)cc(OCC(=O)N2CCN(Cc3ccc4c(c3)OCO4)CC2)c2ccccc21
  A: .	B: 13%	C: 0.9	D: -5	E: -0.3%	F: -9%	G: 5%
O=C1/C(=C/c2ccc3c(c2)OCO3)N2CCC1CC2
  A: -5	B: 10%	C: 1.1	D: -5	E: -4.5%	F: 20%	G: 2%

A section of the results above:
Short keys – A = TRPV1 PAM; B = gsp antagonist; C = Menin-MLL FL inh; D = TRPML1 blocker; E = ClpP mod; F = gsp agonist; G = Sfp inh
CCn1c(=O)cc(OCC(=O)N2CCN(Cc3ccc4c(c3)OCO4)CC2)c2ccccc21
  A: .	B: 13%	C: 0.9	D: -5	E: -0.3%	F: -9%	G: 5%
O=C1/C(=C/c2ccc3c(c2)OCO3)N2CCC1CC2
  A: -5	B: 10%	C: 1.1	D: -5	E: -4.5%	F: 20%	G: 2%

Random excerpt: two entries already listed, in no set order.
Short keys – A = TRPV1 PAM; B = gsp antagonist; C = Menin-MLL FL inh; D = TRPML1 blocker; E = ClpP mod; F = gsp agonist; G = Sfp inh
COc1cc2[nH]c(=O)n(-c3ccc(C)cc3)c(=O)c2cc1OC
  A: 4	B: 3%	C: 2.5	D: 31&-7	E: 4.0%&-2.6%	F: 5%[15.4 µM]	G: 12%
O=Cc1cn(Cc2ccccc2F)c2ccccc12
  A: 16	B: -5%	C: 2.5	D: 26	E: .	F: ?	G: ?

Limited to TRPV1 PAM, gsp agonist and TRPML1 blocker, for some of the entries so far:
Compound	TRPV1 PAM	gsp agonist	TRPML1 blocker
NCCc1cc(O)c(O)cc1O	.	.	3&61
COc1ccccc1CN1CCNCC1	.	-11%	-1

Next entries:
Short keys – A = TRPV1 PAM; B = gsp antagonist; C = Menin-MLL FL inh; D = TRPML1 blocker; E = ClpP mod; F = gsp agonist; G = Sfp inh
O=C(CN1CC(c2ccccc2)CC1=O)Nc1ccc(F)cc1 (stereo not given)
  A: -2	B: -6%	C: 7.3	D: 28	E: 0.6%	F: -25%	G: 22%
CCOC(=O)C1(CCOc2ccccc2)CCN(C(C)CSC)CC1 (stereo not given)
  A: -6	B: -1%	C: -1.5	D: 0	E: 1.0%	F: 13%	G: 11%
O=C(NC1CCCCC1)N1Cc2ccccc2-n2nncc2C1
  A: .	B: -8%	C: .	D: 11	E: -2.6%	F: .	G: .
O=C1NC(=O)C(=Cc2ccc(-c3ccc(S(=O)(=O)N4CCOCC4)cc3)o2)C(=O)N1
  A: 16	B: -16%	C: 6.1	D: 1	E: 0.6%	F: 1%	G: 8.9µM*
Cc1nn(Cc2ccccc2)c(Cl)c1C(=O)NC1CCCc2ccccc21 (stereo not given)
  A: -25	B: -28%	C: 5.5	D: 65	E: -2.2%	F: ?	G: -1%
COc1ccccc1N(CC(=O)NC1CCCC1)C(=O)c1cnn(C(C)C)c1
  A: -4	B: 2%	C: 1.6	D: 2	E: 0.5%	F: 11%	G: -11%
CC(C)C12CN3CCN(CC(C3)C1O)C2 (stereo not given)
  A: 12	B: 0%	C: 1.2	D: 7	E: 0.4%	F: 4%	G: 24%
CCOC(=O)Cn1cc([N+](=O)[O-])nc1[N+](=O)[O-]
  A: -14	B: 20%	C: 1.0	D: 3	E: 0.6%	F: 15%	G: -5%
CCOc1cc2c(cc1OCC)-n1cccc1C(c1ccc(C)cc1C)NC2 (stereo not given)
  A: -11	B: 5%	C: 2.5	D: 9	E: .	F: 21%	G: -7%
CC(C)COC(=O)c1ccccc1C(=O)OCC(C)C
  A: -11	B: -7%	C: 2.6	D: 0	E: 0.6%	F: ?	G: 6%
C[N+]1(C)C2CCC1CC(OC(=O)C(CO)c1ccccc1)C2 (stereo not given)
  A: -4	B: 3%	C: 2.0&2.4&0.6	D: 4	E: 0.6%	F: -46%[inhibitor]	G: 13%
CN1C(=O)NC(=O)[C@]2(Cc3ccccc3N3CCN(c4ccccc4)CC32)C1=O (stereo not given in full)
  A: -2	B: -14%	C: -0.3	D: -15	E: -2.0%	F: 31%	G: -17%
COCCCn1c(-c2ccc(OC)cc2)cc(C(=O)NC2CCCCCCC2)c1C
  A: -3	B: ?	C: 5.0	D: 20	E: 1.6%	F: -2%[15.4 µM]	G: -8%
COc1ccc(-n2c(O)c(C=NCc3ccc4c(c3)OCO4)c(=O)[nH]c2=O)cc1
  A: 7	B: -11%	C: 7.4	D: -5	E: .	F: 16%	G: -16%
O=c1[nH]c(=O)n(-c2cccc(Cl)c2)c(O)c1C=NCCN1CCCCC1
  A: -17	B: 8%	C: 0.2	D: 1	E: -0.9%	F: -9%	G: -3%
CC1CN=C(Nc2ccc(N(C)C)cc2)S1 (stereo not given)
  A: -9	B: -25%	C: 3.8	D: 24	E: -1.4%	F: ?	G: 9%
COc1ccc(N2C(=O)CC(N3CC=C(c4ccccc4)CC3)C2=O)cc1 (stereo not given)
  A: -2	B: -1%	C: 2.4	D: 4	E: -1.3%	F: 11%	G: 4%
CC(=O)c1cn(CCCOc2ccccc2)c2ccccc12
  A: 7	B: -30%	C: 0.3	D: 14	E: -0.2%	F: -52%[inhibitor]	G: -25%
Nc1cc(Cl)cc(C(=O)O)c1Cl
  A: 2	B: 6%	C: .	D: -2	E: -3.9%	F: .	G: .

Not all compounds are listed, so the mix of outcomes need not match the whole.
